Source: PubChem
Polio RdRp inh – poliovirus RdRp elongation inhibitors, primary screen, biochemical, fluorescence polarization, total intensity; Genome polyprotein (Poliovirus type 1 (strain Mahoney)), P03300; poliovirus polymerase elongation; stronger effect = lower value; % elongation, % (compound at 16.7 µg/mL); 150,000 compounds, 0.66% hits; in the data active = % elongation below about 90%; also: some results filed as inactive read as strong as hits
Target sequence (P03300 1749-2209 limits assumed): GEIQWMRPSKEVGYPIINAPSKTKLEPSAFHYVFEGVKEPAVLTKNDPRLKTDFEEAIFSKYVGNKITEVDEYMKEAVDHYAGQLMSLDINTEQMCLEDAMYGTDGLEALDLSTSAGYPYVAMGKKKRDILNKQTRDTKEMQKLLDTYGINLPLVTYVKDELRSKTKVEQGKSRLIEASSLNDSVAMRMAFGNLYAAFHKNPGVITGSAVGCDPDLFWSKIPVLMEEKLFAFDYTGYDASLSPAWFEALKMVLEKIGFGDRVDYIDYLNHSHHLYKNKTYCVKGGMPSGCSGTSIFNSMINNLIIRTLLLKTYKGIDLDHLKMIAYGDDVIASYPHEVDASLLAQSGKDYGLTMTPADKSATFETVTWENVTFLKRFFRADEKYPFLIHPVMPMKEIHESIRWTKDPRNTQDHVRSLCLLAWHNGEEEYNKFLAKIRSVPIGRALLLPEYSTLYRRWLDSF
Polio RdRp inh intensity – second read-out of Polio RdRp inh, no call of its own (marks repeat the call); % elongation; measured here: total intensity read-out; formula for this scale not given here;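 total fluorescence in place of polarization; lower means less elongation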
Numbers without * were called inactive. The list is partial. The share of hits here may be higher or lower than overall.

SMILES | Polio RdRp inh | Polio RdRp inh intensity
CC(C)(C)OC(=O)N1CCC(c2c(C(=O)N3CCN(c4ccc(Cl)cc4)CC3)cnn2-c2ccc(F)cc2F)CC1 | 104 | 105
O=C1CCc2cc(S(=O)(=O)NCc3ccc(F)cc3)cc3c2N1CC3 | 98 | 95
CC(=O)c1ccc(Nc2nc3c(S(=O)(=O)c4ccccc4)nnn3c3ccc(Cl)cc23)cc1 | 105 | 107
COc1ccc(-c2c3c(nc4sc(C(=O)Nc5cccc(OC)c5)c(N)c24)CC(C)(C)CC3=O)cc1 | 108 | 111
Cc1csc2nc(CCNS(=O)(=O)c3ccc(F)cc3)cn12 | 108 | 101
N#Cc1ccc(CSc2nc3c(c(=O)[nH]2)CCC3)cc1 | 113 | 113
CCOc1cccc(NC(=O)C2CC(=O)N(C)C(=Nc3ccc(F)cc3)S2)c1 (stereo not given) | 100 | 103
CCc1ccc(S(=O)(=O)c2nnn3c2nc(Nc2cc(OC)ccc2OC)c2sccc23)cc1 | 110 | 114
Cc1cccc(OCc2ccc(-c3nc(C#N)c(N4CCN(c5ccccc5)CC4)o3)o2)c1 | 104 | 93
Cc1cc(C)c2c(CC(=O)Nc3c(C(=O)c4ccc(F)cc4)oc4ccccc34)coc2c1 | 120 | 119
COc1cccc(Cn2c(CNS(=O)(=O)c3ccc(C(C)(C)C)cc3)nc3cccnc32)c1 | 123 | 129
O=C(O)CCn1cnc2onc(-c3cc(F)cc(F)c3)c2c1=O | 110 | 110
Cc1c(Cl)cccc1NC(=O)C(=O)NCCc1csc2nc(-c3ccccc3F)nn12 | 105 | 100
CCOc1ccc(NC(=O)c2cc3cc(C)ccc3n2C)cc1 | 107 | 112
O=C(NCCCc1nc2ccccc2n1Cc1cccc(Cl)c1)C1CCCCC1 | 109 | 114
COCCCNc1nc2c(c(=O)n(Cc3ccc(F)cc3)c(=O)n2C)n1C | 111 | 114
CCN1C(=O)c2ccccc2S(=O)(=O)c2ccc(C(=O)NCc3ccccc3Cl)cc21 | 107 | 106
O=C(CCn1c(=O)c2cccn2c2ccc(F)cc21)NCCc1ccccc1 | 104 | 107
Cc1cccc2cc(CN(C(=O)c3cccc(Cl)c3)c3ccccc3)c(=O)[nH]c12 | 117 | 118
Cc1ccc2c(=O)c(C(=O)c3ccccc3)cn(CC(=O)Nc3ccccc3C)c2n1 | 107 | 117

The last four compounds of the part before open the next one:
SMILES | Polio RdRp inh | Polio RdRp inh intensity
CCN1C(=O)c2ccccc2S(=O)(=O)c2ccc(C(=O)NCc3ccccc3Cl)cc21 | 107 | 106
O=C(CCn1c(=O)c2cccn2c2ccc(F)cc21)NCCc1ccccc1 | 104 | 107
Cc1cccc2cc(CN(C(=O)c3cccc(Cl)c3)c3ccccc3)c(=O)[nH]c12 | 117 | 118
Cc1ccc2c(=O)c(C(=O)c3ccccc3)cn(CC(=O)Nc3ccccc3C)c2n1 | 107 | 117
COc1cc(NC(=O)CCn2cnc3ccccc3c2=O)cc(OC)c1 | 104 | 104
Cc1ccc(C)c(N2CCN(C(=O)C3CCN(C(=O)c4cc5sccc5n4C)CC3)CC2)c1 | 106 | 110
O=C(c1cc(-c2ccc(Cl)cc2)on1)N(Cc1ccc(F)cc1)Cc1ccco1 | 101 | 102
COc1ccc(-c2noc(-c3ccc(NC(C)c4ccccc4)c([N+](=O)[O-])c3)n2)cc1OC (stereo not given) | 110 | 117
Cn1c2ccccc2c2cnn(CC(=O)N3CCN(c4cccc(C(F)(F)F)c4)CC3)c(=O)c21 | 109 | 107
CCC(=O)N1CCc2cc(CNC(=O)Nc3cc(OC)c(OC)c(OC)c3)ccc21 | 110 | 99
CC1=C(C(=O)N2CCN(c3cccc(C(F)(F)F)c3)CC2)C2(CCCCC2)OC1=O | 105 | 98
COc1cc(CN(C(=O)c2ccccc2)c2ccccn2)cc(OC)c1OC | 113 | 114
CCOC(=O)CNS(=O)(=O)c1cc(-c2nnc(Nc3cccc(O)c3)c3ccccc23)ccc1C | 105 | 105
Cc1ccc(-c2cc3ncc(C(=O)c4cc([N+](=O)[O-])ccc4O)cn3n2)cc1 | 100 | 102
CCOc1ccc(CCNC(=O)CCc2cn(Cc3ccc(C)cc3)c3ccccc23)cc1 | 109 | 113
Cc1ccc(-c2nc(-c3cc4cccc(OCc5cccc(C)c5)c4oc3=O)no2)cc1 | 133 | 170
Cc1cc(C)cc(NC(=O)C(=O)NCCc2sc(-c3cccc(F)c3)nc2C)c1 | 114 | 112
Cn1nc(C(=O)N2CCN(c3ccccc3F)CC2)c2c1-c1ccccc1S(=O)(=O)C2 | 108 | 105
Cc1ccc(NC(=O)COc2ccc3oc4c(c3c2)CCCC4)c(C)c1 | 105 | 108
Cc1ccc(-c2nc3ccccc3o2)cc1NC(=O)c1cccc2c(Cl)cccc12 | 105 | 107
Cc1ccc(CCNC(=O)CN(c2ccc(C)cc2)S(=O)(=O)c2c(C)noc2C)cc1 | 106 | 106
Cc1cccc(Cn2cnc3c(oc4ccccc43)c2=O)c1 | 109 | 112
CCc1ccc(CNC(=O)c2nn(-c3ccc(C)c(C)c3)nc2CO)cc1 | 101 | 98
COc1ccc(CNC(=O)c2nn(C)c3c2CSc2ccccc2-3)cc1 | 115 | 116

Next section, starting with the last three of the part before.
SMILES | Polio RdRp inh | Polio RdRp inh intensity
Cc1cccc(Cn2cnc3c(oc4ccccc43)c2=O)c1 | 109 | 112
CCc1ccc(CNC(=O)c2nn(-c3ccc(C)c(C)c3)nc2CO)cc1 | 101 | 98
COc1ccc(CNC(=O)c2nn(C)c3c2CSc2ccccc2-3)cc1 | 115 | 116
O=C(CN1C(=O)COc2ccc(S(=O)(=O)N3CCCCC3)cc21)NCCc1ccc(Cl)cc1 | 109 | 106
Cc1ccccc1CCNCc1c(C(=O)O)c(C)n(Cc2c(F)cccc2Cl)c1C | 101 | 105
Cc1cc(NC(=O)c2cc(-c3ccc(Cl)cc3)on2)n(-c2ccccc2)n1 | 105 | 107
Cc1cc(=O)n(CC(=O)N2CCN(c3ccccc3F)CC2)c2c1c(C)nn2C | 105 | 112
Cc1ccc(S(=O)(=O)NCCSc2nnnn2-c2ccccc2)cc1 | 107 | 109
O=C(CSc1nc(-c2ccccc2)c2ccccc2n1)Nc1ccc(F)cc1 | 112 | 117
COc1ccc2c(c1)-c1nc(NC(=O)c3ccccc3F)sc1CC2 | 103 | 104
Cc1ccc(CSc2ncc(Cl)c(C(=O)NCCc3ccc(S(N)(=O)=O)cc3)n2)cc1 | 111 | 112
CCN(CC)C(=O)Cn1c(=O)nc(-c2ccccc2F)c2cc(Cl)ccc21 | 106 | 107
Cc1csc2nc(-c3cccc(NS(C)(=O)=O)c3)cn12 | 104 | 109
CCCCNC(=O)CSc1nc2ccccc2nc1Cc1ccccc1 | 108 | 106
Cc1cccc(Cn2c(=O)n(Cc3ccccc3)c(=O)c3oc4ccccc4c32)c1 | 105 | 112
CCc1ccc(C(=O)c2cn(CC(=O)NC3CCCCC3)c3nc(C)ccc3c2=O)cc1 | 101 | 106
COCCOC(=O)C1=C(C)NC(=O)NC1c1cn(-c2ccccc2)nc1-c1ccccc1 (stereo not given) | 107 | 108
CCOc1ccccc1CNC(=O)CCc1cn(C)c2ccccc12 | 107 | 95
Cc1nn(C)c(C)c1CCNC(=O)Nc1ccccc1C(F)(F)F | 102 | 97
COc1ccccc1CNC(=O)CN1C(=O)CSc2c1c(C)nn2-c1ccccc1 | 108 | 114
CCc1cccc(C)c1NC(=O)CCn1nc(C)c2c(C)n(-c3ccccc3)nc2c1=O | 104 | 112
COc1ccccc1NC(=O)CN1C(=O)C(c2ccc(F)cc2)=NC12CCCCC2 | 111 | 111
Cc1ccc(N2CCn3c2nc2c3c(=O)n(Cc3cccc(Cl)c3)c(=O)n2C)cc1C | 106 | 113
CCc1nc2ccc(C(=O)N3CCN(c4ccc(Cl)cc4)CC3)cc2nc1CC | 107 | 107
Cn1cc(C(=O)NCc2ccc(F)cc2)c(=O)c2cc(S(=O)(=O)N3CCCCC3)ccc21 | 101 | 103
Cc1cccc(N2CCN(S(=O)(=O)c3ccc4c(c3)CCCN4C(=O)C3CCC3)CC2)c1C | 106 | 104
CSc1ccc(CCNC(=O)Cn2ccc3cc(S(=O)(=O)N4CCCCCC4)ccc32)cc1 | 106 | 101
CCCCN(CC)C(=O)c1ccc2c(c1)NC(=O)c1ccccc1S2 | 104 | 102
COc1cccc(N=C2SC(C(=O)Nc3cccc(Cl)c3)CC(=O)N2C)c1 (stereo not given) | 105 | 111
CCOC(=O)c1ccc(NC(=O)CCn2c(=O)c3cccn3c3cccnc32)cc1 | 107 | 107
Cc1ccc(Cl)cc1N(C)C(=O)c1cc2ccc3cccnc3c2[nH]1 | 107 | 111
Cc1cccc(C)c1-n1ncc(C(=O)NCCCN2CCC(C)CC2)c1C1CCN(C(=O)OC(C)(C)C)CC1 | 112 | 108
Cc1ccc(-c2nn(-c3ccc(F)cc3)c3c2cnc2cc(F)c(F)cc23)cc1 | 105 | 109
CC(C)c1cnc2c(c1SCc1cccc(C(F)(F)F)c1)c(=O)n(C)c(=O)n2C | 107 | 109
CC(C)c1ccc(OCC(=O)NCCS(=O)(=O)N2CCN(c3ccc(F)cc3)CC2)cc1 | 112 | 110
O=C(NCCN1CCCCC1)c1ccc(Cn2c(SCc3cccc(F)c3)nc3cccnc32)cc1 | 112 | 110
CCC(=O)N1c2ccccc2CC1C(=O)NCc1ccc(OC(C)C)cc1 (stereo not given) | 107 | 103
Cn1c(=O)n(CCc2ccccc2)c(=O)c2c1nc1n2CCN1c1ccc(Cl)cc1 | 111 | 107
Cc1cccn2c(=O)cc(COc3cccc(NC(=O)COc4ccc(F)cc4)c3)nc12 | 102 | 99
COc1ccc2oc(=O)c(-c3cn4c(n3)sc3cc(OC)ccc34)cc2c1 | 109 | 112
Cc1ccc(NC(=O)c2oc3ccc(S(=O)(=O)N4CCC5(CC4)OCCO5)cc3c2C)cc1Cl | 104 | 102
COc1ccc(C2C=C(c3ccccc3)Nc3nc(NC(C)=O)nn32)cc1 (stereo not given) | 99 | 105
COc1ccc(OC)c(-c2cc(C(=O)Nc3cnn(Cc4ccc(Cl)cc4Cl)c3)no2)c1 | 102 | 104
Cc1ccc2oc(=O)n(CCNC(=O)Nc3ccccc3C)c2c1 | 108 | 98
O=C1N(Cc2cccc(C(F)(F)F)c2)c2ccccc2S(=O)(=O)N1c1cccc(Cl)c1 | 106 | 106
CCOC(=O)c1cccc(NC(=O)c2cc3ccccn3n2)c1 | 111 | 103
CCCCOc1ccc(C(=O)N(Cc2ccc(N(C)C)cc2)Cc2ccco2)cc1 | 102 | 96
Cc1ccc(CSC2=Nc3ccccc3C3=NC(CCC(=O)NC4CCCCC4)C(=O)N23)cc1 (stereo not given) | 117 | 114
CCC1CCCCN1S(=O)(=O)c1ccc(C(=O)Nc2sc3c(c2C(=O)NC)CCC3)cc1 (stereo not given) | 99 | 100
Cn1c(-c2cccc(Br)c2)cnc1NCc1cccc(F)c1 | 103 | 104

A second format for 4 compounds above.
CCCCOc1ccc(C(=O)N(Cc2ccc(N(C)C)cc2)Cc2ccco2)cc1
  Polio RdRp inh = 102
  Polio RdRp inh intensity = 96
Cc1ccc(CSC2=Nc3ccccc3C3=NC(CCC(=O)NC4CCCCC4)C(=O)N23)cc1 (stereo not given)
  Polio RdRp inh = 117
  Polio RdRp inh intensity = 114
CCC1CCCCN1S(=O)(=O)c1ccc(C(=O)Nc2sc3c(c2C(=O)NC)CCC3)cc1 (stereo not given)
  Polio RdRp inh = 99
  Polio RdRp inh intensity = 100
Cn1c(-c2cccc(Br)c2)cnc1NCc1cccc(F)c1
  Polio RdRp inh = 103
  Polio RdRp inh intensity = 104

Single records, from the list above. Values in the order: Polio RdRp inh	Polio RdRp inh intensity
CCOC(=O)c1cccc(NC(=O)c2cc3ccccn3n2)c1 is listed as 111	103
Cc1ccc2oc(=O)n(CCNC(=O)Nc3ccccc3C)c2c1 is listed as 108	98
